# Compound activity: PubChem BioAssay, several laboratories
# T cruzi inh: blocks replication of Trypanosoma cruzi | T. cruzi beta-gal in NIH3T3, luminescence, 90 h | inhibition, % (concentration not given with the values) | actives 1.4% (n = 300,000) | AID 1885;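 active = mean inhibition across valid replicates above about 55%, limit read from the data; inconclusive = mean below that limit but half or more replicates reach it; inactive = mean below it, under half of replicates reach it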;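 note: signal also drops with host cell toxicity which is not excluded here; 0% = plate median of DMSO wells and 100% = zero luminescence signal; higher percent means less beta-gal luminescence so fewer parasites; stock transfer was 50 nL into about 50 µL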
# UCH37 DUB inh: inhibitors of human deubiquitinating enzyme UCH37 | Q9Y5K5 | purified proteasome/UCH37, Ub-AMC cleavage fluorescence | inhibition, % (no concentration beside the values) | actives 0.33% (n = 330,000) | AID 588478;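 active = mean of two replicates above 20%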;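 note: 0% = compound-free wells with enzyme and 100% = wells lacking proteasome; stock transfer was 100 nL into about 20 µL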
# Target sequence (Q9Y5K5 whole entry, looked up): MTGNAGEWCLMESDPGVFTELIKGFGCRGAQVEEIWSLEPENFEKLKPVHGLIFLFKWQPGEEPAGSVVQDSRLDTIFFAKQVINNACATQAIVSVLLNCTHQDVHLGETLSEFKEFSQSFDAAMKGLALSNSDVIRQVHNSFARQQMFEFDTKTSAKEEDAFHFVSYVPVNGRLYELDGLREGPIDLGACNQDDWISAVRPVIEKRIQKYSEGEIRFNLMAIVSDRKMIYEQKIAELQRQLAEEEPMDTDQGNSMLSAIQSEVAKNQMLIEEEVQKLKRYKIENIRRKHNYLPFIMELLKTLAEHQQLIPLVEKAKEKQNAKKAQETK
#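 Material: Human UCH37 enzyme supplied as purified proteasome complex | Schedule: 30 min compound-proteasome preincubation then 25 min substrate reaction, room temperature | Detection: AMC fluorescence from Ub-AMC cleavage, excitation 355 nm, emission 460 nm | Benchmarks: Wells without proteasome as full block, compound-free enzyme plus substrate as uninhibited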
# Bfl-1 A1 inh: inhibitors of the anti-apoptotic protein A1, read as caspase activation; MEF A1-2A-BIM cells, Caspase-Glo 3/7 luminescence, 3 h; percent of clofoctol response, vehicle zero; caspase activation, % (concentration not given with the values); actives 0.066% (n = 330,000); AID 2462;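 active = over half of replicate activation scores above 10%, or exactly half above 10 with the replicate mean above 10; inconclusive = replicate mean below 10 yet half the replicates above 10; inactive = over half of replicates below 10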;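 note: wells of about 30 µL received 50 nL stock; many hits fall short of the cut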
# Beta cell apopt: blocks beta cell apoptosis | INS-1E cytokine-induced death, ATP luminescence, 48 h; percent of positive-control rescue, neutral wells zero | protection from apoptosis, % (test concentration not listed) | AID 435005 | actives 0.8% (n = 300,000);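 active = all replicates at 75% or more, or half of them and the mean; inconclusive = half reach 75% but not the mean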;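 note: 0% = cytokine-treated negative control wells and 100% = positive control rescue; higher means more ATP so stronger rescue from cytokine killing; wells of about 40 µL received 100 nL stock; the first replicate is given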
# Ecoli growth: E. coli growth inhibition | Escherichia coli growth, OD600, 23 h; stronger effect = lower value | OD600 absorbance (no concentration beside the values) | actives 0.21% (n = 330,000);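 active = OD600 absorbance below the run mean of sample wells minus 3.6 SD, in any replicate, cut at about 0.56 in these data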;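 note: stock transfer was 300 nL into about 60 µL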
# rRNA inh HTS: inhibits bacterial ribosomal RNA function over humanized ribosomes; E. coli WT GFP vs humanized-ribosome RFP mutants, fluorescence, 24 h; stronger effect = lower value; DMSO median 0, no signal -100; GFP signal change (wild-type ribosome), % (concentration not given with the values); actives 1.6% (n = 350,000); AID 720706;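 active = significant combined selectivity score with lowered wild-type GFP, culture density cut under 30%, mutant RFP and density less affected; inactive = any of these conditions unmet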; note: one replicate is shown; some compounds called inactive have numbers as strong as hits
# AF4-AF9 inh: inhibitors of human MLL-AF4/AF9 interaction. P42568. inhibition, % at 10 µM. actives 0.47% (n = 350,000). AlphaScreen, biotin-AF4 peptide binding to FLAG-AF9. AID 651704;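 active = every replicate reaching a set inhibition limit, whatever the replicate mean, cut at about 25% in these data; inconclusive = mean inhibition reaches that limit but some replicates miss it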;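 note: 0% = plate neutral control median and 100% = total signal loss; the record names both 10 and 1 µM as test concentration; the first replicate is given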
# Target sequence (P42568 whole entry, looked up): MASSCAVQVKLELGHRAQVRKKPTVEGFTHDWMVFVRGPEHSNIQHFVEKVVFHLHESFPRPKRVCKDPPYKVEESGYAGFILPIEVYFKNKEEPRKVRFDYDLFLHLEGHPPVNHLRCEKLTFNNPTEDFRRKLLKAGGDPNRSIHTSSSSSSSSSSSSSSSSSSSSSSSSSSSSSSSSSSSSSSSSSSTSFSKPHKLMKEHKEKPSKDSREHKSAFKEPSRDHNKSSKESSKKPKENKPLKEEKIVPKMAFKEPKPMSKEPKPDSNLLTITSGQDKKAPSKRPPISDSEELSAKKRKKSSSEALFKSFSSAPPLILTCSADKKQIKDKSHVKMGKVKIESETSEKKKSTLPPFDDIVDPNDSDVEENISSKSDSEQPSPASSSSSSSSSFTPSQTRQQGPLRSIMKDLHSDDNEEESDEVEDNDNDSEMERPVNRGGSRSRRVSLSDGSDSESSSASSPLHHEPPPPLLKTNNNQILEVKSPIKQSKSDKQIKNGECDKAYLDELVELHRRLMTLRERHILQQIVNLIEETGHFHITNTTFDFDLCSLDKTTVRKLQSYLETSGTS
# FGF22 binding: shifts melting point of recombinant human FGF22; recombinant FGF22 thermal shift, SYPRO orange fluorescence; percent of sucrose octasulfate shift, DMSO zero; calls only at 9.99 µM; Q9HCT0; actives 1.5% (n = 340,000);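 active = melting point raised past a set limit in the mean and every replicate; inconclusive = no clear call; three in four hits are not shown here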
# Target sequence (Q9HCT0 whole entry, looked up): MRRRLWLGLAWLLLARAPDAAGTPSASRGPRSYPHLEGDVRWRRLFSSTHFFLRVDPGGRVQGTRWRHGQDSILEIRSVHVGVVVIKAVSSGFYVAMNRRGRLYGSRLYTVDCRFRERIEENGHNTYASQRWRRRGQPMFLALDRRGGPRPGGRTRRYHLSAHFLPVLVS
# rRNA inh HTS OD600: further read-out of rRNA inh HTS, marked with its call; OD600 change, %; measured here: OD600 growth;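 optical density of the mix in the first replicate; 0 = DMSO median and -100 = no signal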
# rRNA inh HTS RFP: also measured in rRNA inh HTS; calls as there; RFP signal change, %; measured here: RFP humanized mutant strains;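 first replicate; 0 = DMSO median and -100 = no signal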
# * = called active by the depositor; i = inactive; ? = inconclusive; / = not tested or not shown; + = active, no number; & = joins results of further samples. Only part of the results is shown (hit frequency here may not be typical).
compound	T cruzi inh	UCH37 DUB inh	Bfl-1 A1 inh	Beta cell apopt	Ecoli growth	rRNA inh HTS	rRNA inh HTS OD600	rRNA inh HTS RFP	AF4-AF9 inh	FGF22 binding
Cn1c(=O)c(=O)n(C)c2cc(S(=O)(=O)N3CCCC3C(=O)Nc3ccccc3F)ccc21 (centres undefined)	-7	5.2	0.6	-5	0.75	6	13	-1.2	-2.5	i
COc1ccccc1CC(=O)Nc1cccc2ccccc12	-7	1.2	0.2	-5	0.66	3	12	-2.3	-6.9	i
c1cc(CNc2ccc(N3CCOCC3)cc2)ccn1	-1	2.3	1.5	1	0.8	/	/	/	/	/
CCC(=O)Nc1nc(-c2ccc3c(c2)CC(C)N3S(C)(=O)=O)cs1 (centres undefined)	-11	4.8	-0.5	3	0.67	-24	-32	-8.5	1.7	/
Cc1cc(C)c(C#N)c(N)n1	1	-2.8	-1.3	-6	0.65	15	7	-1.5	-1.3	i
O=C(Nc1ccc(F)cc1)Nc1cccc(Br)c1	27	2.0	-0.9	11	0.51	-27	-32	-0.9	1.2	i
COCc1c(C(=O)N/N=C(\C)c2ccc(Cl)s2)nnn1-c1nonc1N	-1	/	0.4	-6	/	8	3	-0.9	2.1	i
Cc1ccccc1OCc1nnc(SCC(=O)Nc2ccc3c(c2)oc2ccccc23)n1C	7	1.8	0.3	6	0.76	/	/	/	/	/
C[C@H](CO)N1C[C@H](C)[C@@H](CN(C)Cc2ccc(-c3ccccc3)cc2)Oc2c(NS(=O)(=O)c3ccccc3)cccc2C1=O	/	2.3	-0.7	1	/	1&9	5&11	1.4&-2.9	6.9&5.8	i
CCOC(=O)C1=C(C)NC(=O)NC1c1ccc(-c2ccc(Cl)cc2)o1 (centres undefined)	21	-2.6	1.0	-15	0.67	14	-4	25	-5.0	i
CCOC(=O)c1sc(NC(=O)Nc2ccccc2)cc1C	54	-0.6	-10	16	0.53*	/	/	/	-6.5	+
COc1ccc(C(=O)NCCS(=O)(=O)N(C)C2CCCCC2)cc1	4	/	0.2	-4	/	-4	6	-0.6	-5.8	i
Cc1cccc(-n2c(=O)c3c(C)c(C)sc3n(CC(N)=O)c2=O)c1	-8	2.2	0.1	0	0.63	9	5	-2.6	-8.0	i
CCOC(=O)C1=NOC(COc2ccccc2C=O)C1 (centres undefined)	1	2.0	?	-5	0.69	17	7	-0.3	0.0	i
CCCN(CCC)c1ccc(/C=C/c2ccc3cc(OCC)ccc3n2)cc1	?	-422	-1.1	30	0.72	7	7	60	-0.1	i
Cc1ccc(C)c2c(N)c3c(nc12)CCCCC3 (tested in a mixture with another compound)	39	1.3	-0.4	1	0.69	8	-3	-1.0	-1.9	i
CCc1ccc(OCC(=O)Oc2ccc([N+](=O)[O-])cc2)cc1	-2	5.2	1.3	-3	0.67	9	18	1.1	2.2	i
COc1ccc(CNC(=O)C(=O)NC2CC(C)(C)NC(C)(C)C2)cc1	-5	2.5	0.0	-2	0.67	18	15	-8.1	-3.7	i
CN1CCN(c2nc(C(N)=O)cc(-c3ccccc3)n2)CC1	4	-28	0.3	8	0.7	/	/	/	/	/
COc1cc(/C=C(\NC(=O)c2ccccc2)C(=O)Nc2cccc(O)c2)c([N+](=O)[O-])cc1OC	-15	51*	-0.2	-8	/	/	/	/	/	/
O=C(Nc1nc(COc2ccccc2)cs1)C12CC3CC(CC(C3)C1)C2	?	8.0	-0.3	7	0.67	/	/	/	/	/
CC1(C(=O)O)Sc2[nH]c(=O)sc2C2c3ccccc3OC(=O)C21 (centres undefined)	-11	-5.7	0.1	-3	0.69	-11	-7	3.5	/	/
CC(C)(C)c1ccc(Cc2n[nH]c(=S)[nH]c2=O)cc1	-1	1.7	1.4	-2	0.63	-8	-14	-2.6	0.8	i
CC1Cc2ccccc2N1c1ncnc2c1nnn2Cc1ccccc1 (centres undefined)	34	-60	0.4	11	0.75	/	/	/	/	/
O=C(COc1ccccc1Cl)NCCCN1CCOCC1	0	4.2	-0.7	-14	0.69	/	/	/	/	/
O=C(Nc1cccc(C(=O)O)c1)Nc1ccc2c(c1)OCO2	6	/	-13	-4	/	26	21	1.5	-7.2	i
COc1ccc(C(=O)NCCOc2cccc(Oc3ccccc3)c2)cc1OC	/	-2.5	1.3	-3	0.72	-36	-58	-9.2	2.1	i
CCn1c(C)[n+](CCCS(=O)(=O)[O-])c2cc(Cl)c(Cl)cc21	-7	4.9	-0.1	2	0.74	/	/	/	/	/
C=CCn1c(CSc2nnc(-c3ccccc3)n2C)n[nH]c1=S	-19	-0.3	-0.9	-8	0.67	8	8	-0.2	-5.7	i
O=C(O)c1cccc(N2C(=O)/C(=C/c3ccc(SCc4ccc(Cl)cc4)o3)SC2=S)c1	/	14	/	/	0.68	1	-3	34	0.3	/
O=C(CC1SC(N2CCCCC2)=NC1=O)Nc1cccc(C(=O)NCc2ccc(F)cc2)c1 (centres undefined)	/	1.0	/	/	0.68	2	-4	-0.3	1.4	i
Cc1c(-c2cc(Br)ccc2O)nc2cc3c(cc2c1C)OCO3	12	2.6	-0.1	8	0.73	6	2	1.5	2.7	i
CC(C)c1cc(C(=O)N2CCCC(N3CCN(c4ccc(F)cc4)CC3)C2)no1 (centres undefined)	3	1.0	-0.4	4	0.72	5	16	0.3	-0.4	i
Cc1noc(C)c1COC(=O)C1CC(O)CN1S(=O)(=O)c1ccc(Cl)cc1 (centres undefined)	-7	4.2	0.2	-13	0.72	/	/	/	/	/
CCOC(=O)c1cccc(NC(=O)CCc2nnc3ccc(N4CCN(C)CC4)nn23)c1	-6	3.6	-0.8	-1	0.67	2	3	-1.3	-1.6	i
Cc1occc1C(=O)NC1CCCCCC1	-15	4.0	0.2	1	0.76	/	/	/	/	/
CCOc1ccc(C(CC(=O)O)NC(=O)C2c3ccccc3Oc3ccccc32)cc1 (centres undefined)	7	1.9	2.0	2	0.67	2	3	-0.7	-1.2	i
O=C(COC(=O)CN1C(=O)C2CCCCC2C1=O)Nc1ccc(S(=O)(=O)N2CCOCC2)cc1 (centres undefined)	-4	2.5	1.4	/	0.71	2	5	-1.8	-2.6	i
CCCCC(=O)Nc1ccc2c(c1)nc(CCN1CCN(C)CC1)n2C	4	2.0	-0.2	4	0.63	8	12	3.1	-2.5	i
Cc1cc(Cl)ccc1OCC(O)CNCCc1ccc(S(N)(=O)=O)cc1 (centres undefined)	7	3.1	0.2	-1	0.63	0	5	3.7	-4.6	i
COc1ccc(S(=O)(=O)N2CCC(NC(=O)N3CCOCC3)CC2)cc1	-1	2.9	-0.4	-3	0.66	9	13	1.3	-2.7	i
CCOC(=O)C1NC(=O)CC1c1ccccc1 (centres undefined)	0	-2.2	-0.4	-3	0.72	/	/	/	/	/
COc1ccc(CN2CCN(C3CCOCC3)CC2CCO)c(C)c1C (centres undefined)	-3	0.5	?	-8	0.68	13	10	2.3	-0.9	i
CN1CCN(CCCNC(=O)c2ccc(/C=C3\Sc4ccccc4N(Cc4ccc(F)cc4)C3=O)cc2)CC1	?	-7.8	/	/	0.61	-57	-82	-25	22	i
O=C(Nc1nc(-c2ccc(S(=O)(=O)N3CCCCCC3)cc2)cs1)c1cccs1	70*	-12	0.1	18	0.74	/	/	/	/	/
O=C(CSc1ccccc1)N1CCN(C(=O)c2ccco2)CC1	-4	1.2	0.6	-9	0.68	4	-5	-2.2	0.6	i
O=C(Nn1cnnc1)c1ccc(Cl)c([N+](=O)[O-])c1	-4	2.9	-0.9	-1	0.66	13	16	-2.0	0.7	i
CCCCOC(=O)CCn1c(=S)oc2ccccc21	-8	0.2	-0.5	-2	0.7	/	/	/	/	/
O=C(CN1CCN(c2ccccn2)CC1)NC1CCCCC1	-4	1.7	0.4	-10	0.78	/	/	/	/	/
O=C(Nc1ccc(Cl)cc1N1CCOCC1)C1CCCO1 (centres undefined)	8	0.0	0.3	-4	0.67	1	-9	0.5	0.7	i
COc1ccc(N2CC(C(=O)N[C@@H](CC(C)C)C(=O)NC3CCCCC3)CC2=O)cc1 (some centres undefined)	-27	3.9	0.2	-3	0.65	5	8	-0.3	-0.1	i
O=C(C(Cl)Cl)N1CC2CCC(CC2)C1	/	4.6	/	/	0.72	6	10	-2.3	-1.5	i
CN1CCN(C(=O)/C(=C/c2ccc(F)cc2)NC(=O)c2ccccc2)CC1	-10	3.8	0.8	-6	0.69	5	18	-1.6	2.6	i
CCCn1nc(NC(=O)C2CCCO2)c2cc3cccc(C)c3nc21 (centres undefined)	-9	-104	0.3	-11	0.72	14	-2	11	-55	i
CCn1c(COc2ccc(C)cc2)nc2ccccc21	-10	0.5	-1.8	6	0.68	-40	-62	-14	-0.5	i
Cc1ccc(S(=O)(=O)c2nc(-c3ccccc3F)oc2N2CC(C)OC(C)C2)cc1 (centres undefined)	25	3.9	0.0	/	0.74	4	10	2.5	5.3	i
O=C(Nc1ccccc1)NN1CC(=O)N(c2ccc(Cl)cc2)CC1=O	-6	4.0	-1.5	0	0.68	-27	-37	-3.0	/	i
COc1ccccc1N(CCC#N)C(=O)CSc1ccc2c(c1)OCCO2	3	4.4	0.0	-2	0.71	-14	-3	-1.1	/	/
Cc1ccc(CSCC(=O)N(C)CC(=O)Nc2ccc(C)cc2)cc1	-6	-2.7	-0.4	1	0.63	-2	-25	-4.1	-5.4	i
O=C1[C@H]2[C@@H](c3ccc(Cl)cc3)N3C(=O)N(c4cccc(Cl)c4)C(=O)[C@@]3(Cc3ccc(Cl)cc3)[C@H]2C(=O)N1C1CCCCC1	29	0.3	0.6	9	/	-1	7	-13	2.7	i

# (continued)
compound	T cruzi inh	UCH37 DUB inh	Bfl-1 A1 inh	Beta cell apopt	Ecoli growth	rRNA inh HTS	rRNA inh HTS OD600	rRNA inh HTS RFP	AF4-AF9 inh	FGF22 binding
Cc1ccc(NC(=O)Cn2c(/C=C/c3ccccc3)nc3ccccc32)cc1C	34	-239	-1.6	-30	0.73	/	/	/	/	/
COc1ccc(-c2nnc(SCc3nnc(-c4ccc(Cl)cc4)o3)n2-c2ccccc2)cc1	39	0.3	-0.3	2	0.68	/	/	/	/	/
COc1ccc(CCNc2ncnc3sc(C)cc23)cc1OC	-42	/	2.1	107*	/	-27	-26	-2.7	2.1	i
COc1ccc(C(=O)N2CCN(C)C(=O)[C@@H]2C)cc1OC1CCN(C(C)C)CC1	-5	3.0	-0.5	-2	0.71	9	17	1.4	-1.1	i
